Screens deposited in PubChem BioAssay by several laboratories.
ALR H2O2 inh – blocks human ALR sulfhydryl oxidase activity; P55789; purified ALR, DTT oxidation, H2O2 HRP-luminol luminescence; inhibition, % (no concentration beside the values); hit rate 3.8% among 290,000; AID 485317;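 active means mean and each replicate at 75% or more; inconclusive means only one of the two met; inactive means neither met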;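 further: stock transfer was 7.5 nL into about 7.5 µL; 0% = neutral wells and 100% = wells with inactivated enzyme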
Target sequence (P55789 whole entry, looked up): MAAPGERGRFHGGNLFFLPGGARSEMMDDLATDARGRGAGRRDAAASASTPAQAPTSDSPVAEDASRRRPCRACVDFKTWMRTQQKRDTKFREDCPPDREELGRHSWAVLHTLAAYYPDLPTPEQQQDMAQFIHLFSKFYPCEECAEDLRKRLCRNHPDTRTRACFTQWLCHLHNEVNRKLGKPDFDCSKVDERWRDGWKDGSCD
Vif A3G – HIV-1 Vif–A3G interaction blockers – biochemical, TR-FRET, GST-Vif 1-94, biotin-A3G peptide, dose response retest, primary screen (AID 1117319). TR-FRET GST-Vif / biotin-A3G peptide binding; higher % means a stronger effect; test concentration not given here; strong numbers were not always called active. inhibition, %, or IC50 in µM where a hit was titrated. hit rate 0.57% among 260,000;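 active means above the screen mean plus three standard deviations and confirmed in dose response; inconclusive means results disagree or hit not tested in dose response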;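 further: Vif residues 1-94 fused to GST binding biotinylated APOBEC3G peptide 110-148; 0% = full assay without inhibitor and 100% = GST in place of GST-Vif; retest series ran down from 100 µM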
AF4-AF9 inh – MLL-AF4/AF9 protein interaction inhibition; P42568; AlphaScreen, biotin-AF4 peptide binding to FLAG-AF9; inhibition, % at 10 µM; hit rate 0.47% among 350,000; AID 651704;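 active means every replicate reaching a set inhibition limit, whatever the replicate mean, cut at about 25% in these data; inconclusive means mean inhibition reaches that limit but some replicates miss it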;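 further: 0% = plate neutral control median and 100% = total signal loss; the record names both 10 and 1 µM as test concentration; the first replicate is given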
Target sequence (P42568 whole entry, looked up): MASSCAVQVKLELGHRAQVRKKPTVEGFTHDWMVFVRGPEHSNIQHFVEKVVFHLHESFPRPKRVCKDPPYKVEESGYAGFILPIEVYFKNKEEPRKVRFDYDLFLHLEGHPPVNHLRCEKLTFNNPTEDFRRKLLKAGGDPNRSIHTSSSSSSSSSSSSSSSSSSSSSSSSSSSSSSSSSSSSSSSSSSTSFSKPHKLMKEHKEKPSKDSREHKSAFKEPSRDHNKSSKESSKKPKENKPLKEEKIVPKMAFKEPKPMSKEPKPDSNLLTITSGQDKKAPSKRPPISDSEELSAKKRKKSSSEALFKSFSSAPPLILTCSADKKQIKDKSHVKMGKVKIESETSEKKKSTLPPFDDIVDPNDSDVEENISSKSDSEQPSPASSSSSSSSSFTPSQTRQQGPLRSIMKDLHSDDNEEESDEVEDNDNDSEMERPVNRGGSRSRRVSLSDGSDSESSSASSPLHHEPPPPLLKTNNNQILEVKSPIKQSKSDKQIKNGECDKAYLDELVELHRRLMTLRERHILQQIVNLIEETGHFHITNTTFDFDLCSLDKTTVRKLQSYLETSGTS
HNF4A DNA FP – change in binding of human HNF4 alpha to DNA. P41235. HNF4a-FITC DNA binding, fluorescence polarization, 1 h. activity change, % at 10 µM. hit rate 0.3% among 360,000; in the data active means activity change above about 30%, passing the limit was not always enough;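 further: controls were the assay level and a saturating level of protein; the project sought stronger binding though the title names inhibitors; some compounds called inactive have numbers as strong as hits; positive values seem to mean higher polarization but the record does not say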
rRNA inh HTS – selective bacterial rRNA inhibition in E. coli. E. coli WT GFP vs humanized-ribosome RFP mutants, fluorescence, 24 h; stronger effect = lower value; DMSO median 0, no signal -100. GFP signal change (wild-type ribosome), % (concentration not given with the values). hit rate 1.6% among 350,000;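 active means significant combined selectivity score with lowered wild-type GFP, culture density cut under 30%, mutant RFP and density less affected; inactive means any of these conditions unmet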; further: one replicate is shown; some compounds called inactive have numbers as strong as hits
Ecoli growth – E. coli growth inhibition; OD600 absorbance (test concentration not listed); hit rate 0.21% among 330,000; Escherichia coli growth, OD600, 23 h; stronger effect = lower value; AID 1053175;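 active means OD600 absorbance below the run mean of sample wells minus 3.6 SD, in any replicate, cut at about 0.56 in these data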;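 further: stock transfer was 300 nL into about 60 µL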
FGF22 binding – binders of recombinant human FGF22 by thermal shift | AID 651658 | calls only at 9.99 µM | Q9HCT0 | hit rate 1.5% among 340,000 | SYPRO orange fluorescence; percent of sucrose octasulfate shift, DMSO zero;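 active means melting point raised past a set limit in the mean and every replicate; inconclusive means no clear call; three in four hits are not shown here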
Target sequence (Q9HCT0 whole entry, looked up): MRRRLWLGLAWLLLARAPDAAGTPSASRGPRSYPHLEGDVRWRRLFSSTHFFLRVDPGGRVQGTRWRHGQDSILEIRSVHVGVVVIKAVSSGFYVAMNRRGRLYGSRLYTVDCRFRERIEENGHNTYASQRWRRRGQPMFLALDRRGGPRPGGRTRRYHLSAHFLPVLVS
rRNA inh HTS OD600 – also measured in rRNA inh HTS; calls as there; OD600 change, %; measured here: OD600 growth;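 optical density of the mix in the first replicate; 0 = DMSO median and -100 = no signal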
rRNA inh HTS RFP – recorded beside rRNA inh HTS, whose call it bears; RFP signal change, %; measured here: RFP humanized mutant strains;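 first replicate; 0 = DMSO median and -100 = no signal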
Numbers without * were called inactive; i = inactive; ? = inconclusive; · = no result given; + = active, no number; & = joins results of further samples.

molecule	ALR H2O2 inh	Vif A3G	AF4-AF9 inh	HNF4A DNA FP	rRNA inh HTS	rRNA inh HTS OD600	rRNA inh HTS RFP	Ecoli growth	FGF22 binding
CC(=O)Nc1ccc(S(=O)(=O)NC2(C(F)(F)F)NC(=O)N(C3CCCC3)C2=O)cc1 (configuration not stated)	-9	21%	·	0.6	·	·	·	0.7	·
CCOC(=O)CC(NC(=O)c1ccc(C)cc1)c1ccc(OC)cc1 (configuration not stated)	-9	-1%	-0.3	-1.4	16	2	-3.6	0.67	i
COc1ccccc1CN(C)C[C@@H]1OCc2cnnn2CCCC(=O)N([C@H](C)CO)C[C@@H]1C	·	·	-0.6	·	-1	0	-0.9	·	i
O=C(Cn1cnc2cc([N+](=O)[O-])ccc2c1=O)Nc1ccc2c(c1)CCC2	-2	6%	·	-3.4	·	·	·	0.8	·
CC(=O)Nc1cccc2ccc(O)cc12	·	20%	-0.8	7.7	-1	16	5.9	0.71	i
CCCc1nc(SCC(=O)NC2CCCC2)c2ccccc2n1	·	·	-4.5	0.2	0	-6	-1.0	0.66	i
O=C(CN(c1ccc(F)cc1)S(=O)(=O)c1ccccc1)NCCSC1CCCCC1	5	-4%	3.6	-2.4	-15	-20	8.6	0.67	i
CCCNC(=O)C[C@H]1C[C@H]2c3cc(NS(C)(=O)=O)ccc3O[C@H]2[C@@H](CO)O1	·	·	-2.5	·	1	6	-0.2	·	i
CN(C)S(=O)(=O)c1ccc(C(=O)OC2CCOC2=O)cc1 (configuration not stated)	-1	-10%	-5.0	-4.9	9	13	2.0	0.71	i
CC(=O)c1cccc(NC(=O)c2ccc3c(c2)C(=O)N(Cc2cccnc2)C3=O)c1	-5	·	-0.9	0.2	·	·	·	0.68	i
COc1cccc(CC(CC(=O)O)C(=O)Nc2cc(C)ccc2C)c1 (configuration not stated)	-1	·	-0.6	0.9	3	-8	0.7	0.68	i
CCOC(=O)c1ccc[n+]([O-])c1	·	-8%	-3.3	-0.6	4	10	-2.6	0.69	i
CCc1noc(C)c1C(=O)N1CCCC(N2CCN(c3ccc(F)cc3)CC2)C1 (configuration not stated)	·	·	0.3	3.5	4	4	-0.9	0.6	i
O=C(C[C@H]1CC[C@H](NC(=O)CC2CC2)[C@H](CO)O1)NCc1ccc(-c2ccccc2)cc1	·	·	0.4	·	-5	0	1.5	·	i
O=S(=O)(c1ccccc1)N1CCN(S(=O)(=O)N2CCCCCC2)CC1	4	·	-1.1	-3.0	3	7	1.2	0.71	i
NC(=O)CSc1nnc(-c2cccnc2)n1Cc1ccccc1	·	?	-2.8	0.8	7	-1	-0.8	0.68	i
C[C@H](CO)N1C[C@H](C)[C@@H](CN(C)C(=O)Nc2ccc(F)cc2)Oc2ccc(NC(=O)CCC(F)(F)F)cc2C1=O	·	·	-1.0	·	4	7	-1.0	·	i
O=C(CSC1=NS(=O)(=O)c2cc(Cl)ccc2N1)Nc1cccc(F)c1	98*	-8%	-26	-5.4	-6	-4	1.8	0.65	i
c1cc(C2OCCO2)cs1	·	1%	0.0	1.3	13	18	3.2	·	i
COc1ccc(CCNC(=O)c2cc(-c3ccccc3)on2)cc1OC	-4	0%	-1.3	-1.2	3	7	-2.8	0.7	i
C[C@H](CO)N1C[C@H](C)[C@H](CN(C)S(C)(=O)=O)OCCCC[C@H](C)Oc2ccc(NC(=O)Nc3cccc4ccccc34)cc2C1=O	·	·	0.1	·	-2	-11	1.0	·	i
Cc1ccc(NC(=O)CCC(=O)Nc2ccc(C)cc2)cc1	-13	3%	-2.8	-0.8	8	3	0.4	0.63	i
CC(C)(C)C(=O)N1CCN(C(=O)c2ccco2)CC1	-1	·	0.7	-0.6	5	12	0.3	0.66	i
NC(=O)c1cccnc1Oc1cccc(Cl)c1	2	2%	·	2.7	·	·	·	0.66	·
O=C(CN1C(=O)NC2(CCCc3ccccc32)C1=O)NCCc1ccc(F)cc1 (configuration not stated)	0	-6%	-4.6	-1.8	-2	-2	2.6	0.73	i
CCC(C)n1cnc2c(c1=O)c1nc3ccccc3nc1n2Cc1ccc(OC)cc1 (configuration not stated)	-8	-2%	·	2.5	·	·	·	0.62	·
COCCOc1cc(NC(=O)c2ccccc2)c(Cl)cc1Cl	-2	7%	-8.6	0.9	1	3	-4.5	0.71	i
CN1c2ccc(-c3ccc(C#N)cc3)cc2[C@H]2[C@H](CCN2C(=O)C2CCCCC2)[C@@H]1CO	·	·	-4.0	·	-42	-46	27	·	i
Cc1ccc(CNC(=O)CN2C(=O)NC(C)(c3cccc(Br)c3)C2=O)cc1 (configuration not stated)	-15	2%	0.2	-4.0	-29*	-21*	-9.1*	0.64	i
CC(C)NC(=O)N1CCC(n2nccc2NC(=O)CCOc2ccccc2)CC1	-8	-3%	-1.2	1.5	10	-1	0.0	0.67	i

Arranged by SMILES length (highest first): part of the list above.
molecule	ALR H2O2 inh	Vif A3G	AF4-AF9 inh	HNF4A DNA FP	rRNA inh HTS	rRNA inh HTS OD600	rRNA inh HTS RFP	Ecoli growth	FGF22 binding
C[C@H](CO)N1C[C@H](C)[C@H](CN(C)S(C)(=O)=O)OCCCC[C@H](C)Oc2ccc(NC(=O)Nc3cccc4ccccc34)cc2C1=O	·	·	0.1	·	-2	-11	1.0	·	i
COc1ccccc1CN(C)C[C@@H]1OCc2cnnn2CCCC(=O)N([C@H](C)CO)C[C@@H]1C	·	·	-0.6	·	-1	0	-0.9	·	i
CC(=O)c1cccc(NC(=O)c2ccc3c(c2)C(=O)N(Cc2cccnc2)C3=O)c1	-5	·	-0.9	0.2	·	·	·	0.68	i
O=C(CN(c1ccc(F)cc1)S(=O)(=O)c1ccccc1)NCCSC1CCCCC1	5	-4%	3.6	-2.4	-15	-20	8.6	0.67	i
COc1cccc(CC(CC(=O)O)C(=O)Nc2cc(C)ccc2C)c1 (configuration not stated)	-1	·	-0.6	0.9	3	-8	0.7	0.68	i
NC(=O)CSc1nnc(-c2cccnc2)n1Cc1ccccc1	·	?	-2.8	0.8	7	-1	-0.8	0.68	i

New compounds follow
molecule	ALR H2O2 inh	Vif A3G	AF4-AF9 inh	HNF4A DNA FP	rRNA inh HTS	rRNA inh HTS OD600	rRNA inh HTS RFP	Ecoli growth	FGF22 binding
C[C@H](CO)N1C[C@H](C)[C@@H](CN(C)C(=O)Nc2cccc3ccccc23)Oc2c(NC(=O)Nc3ccccc3)cccc2C1=O	·	·	1.9	·	0	1	-1.5	·	i
COCC(=O)Nc1ccc2c(c1)C(=O)N(C)C[C@@H](OC)[C@H](C)CN(C(=O)Cc1cccnc1)[C@H](C)CO2	·	·	0.1	·	2	3	-1.6	·	i
COc1ccc2nc(NC(=O)CCNS(=O)(=O)c3ccc4c(c3)oc(=O)n4C)sc2c1	-2	3%	·	-2.0	·	·	·	0.66	·
O=C(NC(=S)Nc1cccc(C(F)(F)F)c1)c1csnn1	10	·	-0.4	0.5	-26	-28	-8.9	0.67	i
Cn1c2ccccc2c2nnc(NN)nc21	26	-8%	-3.4	-2.8	·	·	·	0.61	i
Fc1ccc(-c2cc3nc4c(c(N5CCOCC5)n3n2)CCCC4)cc1	-54	-19%	-32	-2.3	-19	-32	-1.6	0.65	i
Cc1noc(C)c1NC(=O)Nc1ccc2c(c1)C(=O)N([C@@H](C)CO)C[C@H](C)[C@H](CN(C)CC1CC1)O2	·	·	-3.1	·	4	-2	-3.5	·	i
CN(Cc1ccc([N+](=O)[O-])cc1)c1ccccc1	·	1%	6.5	2.0	-26*	-7.5*	0.1*	0.65	i
COC(=O)c1cc(NC(=O)Cc2ccccc2[N+](=O)[O-])ccc1Cl	-10	·	·	0.7	·	·	·	0.68	·
CCn1cc(C(=O)NN)c(=O)c2cc(F)c(N3CCOCC3)cc21	6	-1%	2.0	4.9	-51	-78	-14	0.67	i
COc1ccc(-c2cc(C(=O)O)c3ccccc3n2)c(OC)c1	-1	-1%	·	-2.6	·	·	·	0.8	·
COc1ccc([C@H]2CC(=O)C=C(c3ccc(Cl)c(F)c3)C2)cc1	-2	·	-63	-1.2	-13	-19	-6.0	·	i
O=C(Nc1ccc(S(=O)(=O)Nc2ncccn2)cc1)c1ccc(Cl)c([N+](=O)[O-])c1	-8	·	-3.8	2.1	8	-3	-2.3	0.67	i
NS(=O)(=O)c1cc(Cl)c(NC(=O)COC(=O)c2ccccn2)c(Cl)c1	1	2%	-4.8	0.9	7	4	-2.3	0.67	i
C[C@@]12CCC=C[C@H]1[C@H](c1ccc(F)c(/C=C/c3ccccc3)c1)N(Cc1ccccc1)C2=O	·	·	-11	2.7	7	1	-2.9	·	i
Cc1sc2nc(CN3CCN(S(=O)(=O)c4cccc5nonc45)CC3)[nH]c(=O)c2c1C	-2	0%	·	1.7	·	·	·	0.69	·
COc1ccc(C)cc1NC(=O)CSc1ccc(-c2ccco2)nn1	-4	·	1.6	-2.4	-31	-30	-8.1	0.71	i
CCCc1cc(=O)[nH]c(SCC(=O)NCC2COc3ccccc3O2)n1 (configuration not stated)	·	-8%	-9.3	1.8	-11	-8	1.9	0.64	i
Oc1ccc(C=NNC(=S)Nc2ccccc2)nc1	·	5%	4.2	2.6	-33	-63	-9.0	·	+
CCOc1ccccc1Oc1ccc(C(F)(F)F)cn1	-8	2%	·	0.2	·	·	·	0.74	·
CCc1nnc(NC(=O)CSc2nc(C)c3c(c2C#N)CCCC3)s1	4	-20%&-111%	0.1	3.7	6	15	-3.7	0.76	i
COCCCNC(=O)Cn1cc2c(n1)CCC(C)C2 (configuration not stated)	1	30%	0.4	1.5	6	12	3.2	0.74	i
C[C@H](CO)N1C[C@H](C)[C@@H](CN(C)S(=O)(=O)c2cn(C)cn2)Oc2c(NC(=O)C3CCCCC3)cccc2C1=O	·	·	-0.8	·	3	1	-1.4	·	i
Cc1ccc(NC(=O)CSC2=NN3CCCC(=O)N=C3S2)cc1Cl	·	·	-2.6	-1.4	4	7	1.1	0.69	i
Cc1ccccc1-c1nc(S(=O)(=O)c2ccccc2)c(N2CCCC2)o1	11	·	-1.1	4.9	7	6	-1.5	0.72	i
CCOc1ccccc1CNC(=O)C1CCN(C(=O)N2CC(C)Oc3ccc(C)cc32)CC1 (configuration not stated)	-22	·	-10	1.5	0	1	-1.1	0.78	i
CC1=C(C(=O)OCc2ccccc2)C(c2cccs2)N2C(=O)CCSC2=N1 (configuration not stated)	3	-6%	11	1.9	-1	2	5.5	0.7	i
COc1ccc(S(=O)(=O)Nc2ccc3c(c2)C(=O)N([C@H](C)CO)C[C@H](C)[C@H](CN(C)C(=O)Nc2ccc4c(c2)OCO4)OCCCC[C@@H](C)O3)cc1	·	·	2.7	·	0	-7	-3.0	·	i
Cc1noc(C)c1S(=O)(=O)Nc1ccc2c(c1)C(=O)N([C@@H](C)CO)C[C@@H](C)[C@H](CN(C)C(=O)Nc1ccc3c(c1)OCO3)O2	·	·	-2.3	·	-2	-4	1.0	·	i
Cc1nnc(SCc2ccc(C(=O)O)cc2)s1	·	0%	·	1.6	·	·	·	0.7	·
N#CC1=C(N)OC2=C(CC/C2=C\c2ccccc2)C1c1ccccc1 (configuration not stated)	6	22%	·	20	·	·	·	0.69	·
Cc1nc2ccccc2c(=O)n1NC(=O)C1CCCCC1	0	4%	·	1.6	·	·	·	0.68	·

An excerpt, so the mix of outcomes need not match the whole.
